# Screening data (PubChem BioAssay)
# RecA intein inh: blocks M. tuberculosis RecA intein splicing; cell-free RecA intein splicing, fluorescence; actives 0.75% (n = 290,000); inhibition, %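 (about 9 µM by stock and volumes)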; P9WHJ3; AID 2221; in the data active = inhibition above about 30%; inconclusive = no clear call, values can overlap the other calls;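 also: 0% = vehicle wells and 100% = reference inhibitor control wells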
# Target sequence (P9WHJ3 whole entry, looked up): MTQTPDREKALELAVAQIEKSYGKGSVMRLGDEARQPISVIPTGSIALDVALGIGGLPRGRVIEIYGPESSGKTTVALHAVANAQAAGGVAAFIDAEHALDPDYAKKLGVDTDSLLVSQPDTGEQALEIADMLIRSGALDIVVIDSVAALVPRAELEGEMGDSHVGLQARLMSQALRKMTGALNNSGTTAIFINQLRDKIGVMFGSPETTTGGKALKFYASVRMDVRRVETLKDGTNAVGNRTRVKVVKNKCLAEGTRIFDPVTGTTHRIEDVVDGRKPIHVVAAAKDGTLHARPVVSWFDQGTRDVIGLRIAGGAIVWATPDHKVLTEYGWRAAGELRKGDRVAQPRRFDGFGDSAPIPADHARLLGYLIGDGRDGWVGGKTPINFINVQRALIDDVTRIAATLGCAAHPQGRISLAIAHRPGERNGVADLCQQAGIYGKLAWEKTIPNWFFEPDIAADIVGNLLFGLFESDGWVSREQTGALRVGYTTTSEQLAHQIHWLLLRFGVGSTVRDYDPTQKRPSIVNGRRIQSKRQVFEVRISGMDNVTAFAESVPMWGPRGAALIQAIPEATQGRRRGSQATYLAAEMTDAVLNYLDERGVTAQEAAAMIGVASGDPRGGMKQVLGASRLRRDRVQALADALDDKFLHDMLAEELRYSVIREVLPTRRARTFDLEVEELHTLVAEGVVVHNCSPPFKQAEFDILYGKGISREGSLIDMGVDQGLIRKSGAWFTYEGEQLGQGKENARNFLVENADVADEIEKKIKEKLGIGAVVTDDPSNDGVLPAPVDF
# Mtb H37Rv: M. tuberculosis H37Rv growth inhibitors, H37Rv strain (AID 1626) | M. tuberculosis H37Rv growth inhibition; higher % means a stronger effect | one-dose inhibition, % at 10 µM; IC50 in µM for titrated hits | actives 0.95% (n = 220,000);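 active = confirmed in a dose series; inconclusive = inhibition above 80% but not taken into the dose series; inactive = below 80% or under 30% at every dose of the series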;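 also: bacteria incubated seven days before Alamar blue readout; 0% = bacteria only wells and 100% = bacteria with antibiotic wells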
# Arbovirus inh: antivirals against arbovirus infection | arbovirus infection cell-based antiviral screen | inhibition, % at 10 µM | actives 0.37% (n = 200,000);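 active = inhibition from about 30%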;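 also: bluetongue infection of BSR cells; cell survival read as ATP light after 72 h; 0% = infected wells without compound and 100% = uninfected wells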
# YopH inh: blocks Yersinia enterocolitica YopH tyrosine phosphatase | fluorescence Ex485/Em525 | inhibition, %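 (about 10 µM by stock and volumes)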 | actives 0.16% (n = 140,000) | AID 898;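 active = inhibition of 50% or more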;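 also: controls were vehicle for no effect and minimum signal wells for full effect; inactives centre near -20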
# Mtb betalactam: beta-lactam sensitization of Mtb H37Rv. M. tuberculosis H37Rv growth with meropenem, percent inhibition; hits of this screen are not shown here. inhibition, % at 25 µM. actives 0.27% (n = 330,000);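 active = about 74% or more and at least 40 points above the plate without the antibiotic, then above 30% in a dose series; inconclusive = first-round hits that could not be retested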;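 also: growth measured after seven days incubation then overnight dye step; 0% = bacteria only wells and 100% = bacteria with antibiotic; twin plates without the antibiotic show which effects depend on it; some results filed as inactive read as strong as hits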
# Arbovirus inh repeat: recorded beside Arbovirus inh, whose call it bears; inhibition, %; measured here: 10K subset replicate screen; many hits read low in the repeat;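 first of two repeat runs on a subset; 0% = infected and 100% = uninfected wells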
# Starred values were filed as active, the others as inactive; ? = inconclusive; . = not tested or not shown.
SMILES,RecA intein inh,Mtb H37Rv,Arbovirus inh,YopH inh,Mtb betalactam,others
COc1cc2c(cc1OC)C(COc1ccccc1OC)N(C(=O)C(C)C)CC2 (configuration not stated),-5.6,-3.8%,9.8,.,1.4,
CC(C)CNC(=O)C1CCN(c2ccc(S(=O)(=O)N3CCOCC3)cc2)CC1,-3.9,1.0%,-6.2,-24.1,1.1,
CCN(CC)c1ccc(/C=N\N2CCN(Cc3ccc(C)cc3)CC2)cc1,6.6,-6.5%,6.5,.,-9.3,
CC1(C)CCCN(C(=O)N2c3ccccc3Sc3ccccc32)C1,14.8,3.3%,-15.4,-22.6,-0.2,
CC1=C(C(N)=O)C(c2sccc2C)n2nnnc2N1 (configuration not stated),-2.2,-6.0%,-0.3,-6.4,1.9,
COc1ccc(-c2nnc(SCC(=O)Nc3ccccc3OC)o2)cc1,0.5,32.8%,-2.5,-12.6,98.2,
Cn1cc(S(=O)(=O)c2ccccc2)n(C)c1=O,-1.1,-1.9%,5.4,.,7.4,
CCOC(=O)C1=C(C)N(C)C(=O)NC1c1cc2c(cc1Br)OCO2 (configuration not stated),3.0,-9.7%,2.0,-37.4,-12.9,
COc1cc(C2C(C#N)=C(N)Oc3cc(O)ccc32)cc(OC)c1OC (configuration not stated),-8.6,-6.0%,-12.9,-144.2,-2.3,
CC(C)[C@H](NS(=O)(=O)c1ccc(Cl)cc1)C(=O)OCC(=O)NCCN1C(=O)CSC1=O,2.8,.,.,.,-10.3,
CC(=O)N1CCN(c2ccc(NC(=O)c3ccc4c(c3)OCO4)cc2)CC1,1.3,-9.8%,-23.3,-41.9,2.6,
COc1ccccc1/C=C/C(=O)NC(=S)NC(C)C,-2.4,8.2%,-0.1,-21.4,12.4,
COc1ccc([N+](=O)[O-])cc1NCc1cccnc1,1.1,1.1%,-13.4,.,-4.6,
O=C(OCC(=O)N1CCOCC1)c1ccc(Cl)nc1,0.0,5.0%,13.9,10.4,-2.9,
Cc1cc(NC(=O)CSc2nnnn2C)n(-c2ccccc2)n1,-0.2,3.2%,3.3,-18.9,2.8,
O=C(OC(C(=O)O)C(OC(=O)c1ccccc1)C(=O)NCc1ccccc1)c1ccccc1 (configuration not stated),-1.4,-11.5%,9.7,-25.9,-6.7,
Cc1cccc(Cc2cnc(N3C(=N)SC(c4ccccc4)C3=O)s2)c1 (configuration not stated),-0.2,8.81µM*,0.3,-14.1,70.6,
O=c1[nH]cnc2sc3c(c12)CCN(Cc1ccccc1)C3,-35.0,0.9%,10.2,-21.4,0.3,
COc1ccc2c(C)c(CC(=O)N3CCN(C(=O)C4COc5ccccc5O4)CC3)c(=O)oc2c1C (configuration not stated),-3.1,.,.,.,0.0,
Cc1ccccc1CC1(CO)CCCN(Cc2ccn[nH]2)C1 (configuration not stated),1.3,-7.5%,-3.0,.,-0.3,

# Sorted by count of non-hydrogen atoms (largest number first): 5 of the compounds above.
SMILES,RecA intein inh,Mtb H37Rv,Arbovirus inh,YopH inh,Mtb betalactam,others
COc1cc(C2C(C#N)=C(N)Oc3cc(O)ccc32)cc(OC)c1OC (configuration not stated),-8.6,-6.0%,-12.9,-144.2,-2.3,
Cc1cc(NC(=O)CSc2nnnn2C)n(-c2ccccc2)n1,-0.2,3.2%,3.3,-18.9,2.8,
O=c1[nH]cnc2sc3c(c12)CCN(Cc1ccccc1)C3,-35.0,0.9%,10.2,-21.4,0.3,
O=C(OCC(=O)N1CCOCC1)c1ccc(Cl)nc1,0.0,5.0%,13.9,10.4,-2.9,
Cn1cc(S(=O)(=O)c2ccccc2)n(C)c1=O,-1.1,-1.9%,5.4,.,7.4,

# (continued)
SMILES,RecA intein inh,Mtb H37Rv,Arbovirus inh,YopH inh,Mtb betalactam,others
CCc1nnc(NC(=O)CSc2nccn2-c2cccc(C)c2)s1,-3.4,0.8%,1.8,4.8,-2.2,Arbovirus inh repeat=0.6
CC1(C)CC(NC(=O)c2ccc(-c3ccc([N+](=O)[O-])cc3)o2)CC(C)(C)N1,3.0,.,.,.,0.9,
CC1=NN(C(N)=S)C(=O)C1N=Nc1c(C)cc(C)cc1C (configuration not stated),3.4,?,-0.4,14.9,96.9,
CCCn1c(CCNc2nc(-c3ccc(OC)cc3)cs2)nc2ccccc21,1.1,.,.,.,-0.9,
Cc1nc(C(F)(F)F)ccc1C(=O)Nc1ccccc1F,5.1,7.3%,.,.,0.6,
O=Cc1ccccc1OCCOc1ccc([N+](=O)[O-])cc1,.,-3.8%,-2.7,.,5.3,
COc1cc(-c2nnc(SCC(=O)NC3CCS(=O)(=O)C3)o2)cc(OC)c1OC (configuration not stated),-2.1,2.0%,9.1,.,-3.7,
Cc1ccc2c(COC(=O)c3ccccc3F)cc(=O)oc2c1,2.3,.,.,.,-4.4,
Cc1cc(C)cc(N(CC(=O)NCc2ccc(F)cc2)C(=O)CCC(=O)Nc2ccccn2)c1,0.2,.,.,.,-4.4,
Cc1ccc(SCC(=O)NNC(=O)c2ccccc2)c(C)c1,1.6,.,.,.,-8.0,
CCOc1cc(CNn2nnnc2N)ccc1OCC(=O)NC(C)(C)C,-3.9,-7.5%,16.4,-12.8,1.5,
COc1c(Cl)cc(Cl)cc1C(=O)n1nc(C)cc1C,3.4,-7.3%,0.4,-13.8,2.5,
O=C(NCc1ccccc1Cl)c1ccccc1CCc1ccccc1,0.5,6.2%,0.7,-16.6,36.0,
O=C(NCc1nnnn1-c1ccc(F)c(F)c1)c1ccc2ccccc2c1,0.6,.,.,.,-2.4,
O=C(CCNC(=O)c1ccccc1Cl)Nc1nc2ccccc2s1,3.3,-7.8%,-8.3,.,5.5,
CNC(=O)CN(C1CCCCC1)S(=O)(=O)c1ccc(F)cc1,-0.4,-8.3%,-5.3,-15.5,-3.5,
Fc1cc(F)cc(NC(=S)N2CCN(c3ncccn3)CC2)c1,-1.3,-6.8%,4.5,.,2.4,
Cc1cc(C(=O)OCC(=O)N2c3ccccc3NC(=O)C2(C)C)c(C)n1-c1ccccc1,-1.8,12.5%,9.7,-27.1,-5.6,
COc1ccccc1N1CCN(C(=O)c2ccc(NS(=O)(=O)c3ccc(C)cc3)cc2)CC1,6.3,2.3%,9.8,.,1.0,
CCCCOP(=O)(c1ccc(N(C)C)cc1)C(O)c1ccccc1F (configuration not stated),-2.1,-2.9%,-3.5,-10.0,1.9,
O=C(CSc1nc2ccccc2[nH]1)Nc1cc(C(F)(F)F)ccc1N1CCOCC1,1.1,7.5%,-11.0,-20.7,-13.1,
Cc1cc(C)nc(SCc2nnc(SCc3ccccc3Cl)o2)n1,25.0,-12.8%,-0.8,-52.2,-2.2,
CC(=O)Nc1ccc(S(=O)(=O)N2CCN(S(=O)(=O)N3CCC(C)CC3)CC2)cc1,-0.7,.,.,.,0.6,
COC(=O)c1c(O)cc(C(C)(C)C)n(-c2ccc(F)cc2)c1=O,0.2,-4.7%,12.4,-20.4,-5.4,
O=C(c1ccccc1)c1sc(N2CCOCC2)nc1-c1ccccc1,0.7,8.0%,-8.9,.,6.1,
CCOc1ccc(-c2noc(CCC(=O)NC)n2)cc1OCC,-0.9,-9.9%,0.9,-3.0,-1.7,
COc1ccc(CCC(=O)NCCS(=O)(=O)N2CCN(c3ccc(OC)cc3)CC2)cc1,-2.2,.,.,.,0.4,
Cc1cnc(NC(=O)c2cc3ccccc3o2)s1,-2.3,-3.9%,3.2,.,76.9,
NS(=O)(=O)c1ccc(Nc2ccc3cc(S(=O)(=O)N4CCCCC4)ccc3n2)cc1,0.4,.,.,.,0.8,
COc1ccc(CC(=O)NCc2ccc3c(c2)cc(C)n3C)cc1,0.7,11.8%,-1.7,.,47.2,
COc1ccc(Cl)cc1S(=O)(=O)NCc1nc2nc(C)cc(C)n2n1,-2.5,.,.,.,-0.7,
O=C1OCCC/C1=C\c1ccc2c(c1)OCO2,2.7,.,.,.,0.8,
COc1cc(OC)cc(C(=O)NN2CCOCC2)c1,1.8,.,.,.,-0.4,
COc1ccc(-c2nc3ccccc3s2)cc1O,-1.1,0.0%,17.6,33.1,8.5,
CN(C)/C=C/C(=O)c1ccc2noc(-c3ccccc3)c2c1,0.9,.,.,.,0.0,
CN(C)CCNCc1ccc(OC2CCCC2)cc1,-1.1,-4.2%,-18.1,-27.1,-5.3,
O=C(Nc1ccc(-c2nc3ccccc3o2)cc1)c1ccc2c(c1)OCO2,-1.7,12.7%,-2.6,-24.9,18.2,
CCC(=O)Nc1ccc(-c2nnc(SCc3ccc(C(=O)Nc4nccs4)cc3)n2CC)cc1,0.9,10.4%,2.3,-2.0,4.8,
O=CN1CC(=O)N(c2ccccc2)c2c([nH]c3ccccc23)C1,-2.1,-2.4%,-5.2,-33.4,?,
COC(=O)c1sccc1NC(=O)COc1ccc(C)cc1,1.5,12.1%,1.5,.,27.5,

# Seven consecutive entries out of the list so far:
SMILES,RecA intein inh,Mtb H37Rv,Arbovirus inh,YopH inh,Mtb betalactam,others
O=C(CSc1nc2ccccc2[nH]1)Nc1cc(C(F)(F)F)ccc1N1CCOCC1,1.1,7.5%,-11.0,-20.7,-13.1,
Cc1cc(C)nc(SCc2nnc(SCc3ccccc3Cl)o2)n1,25.0,-12.8%,-0.8,-52.2,-2.2,
CC(=O)Nc1ccc(S(=O)(=O)N2CCN(S(=O)(=O)N3CCC(C)CC3)CC2)cc1,-0.7,.,.,.,0.6,
COC(=O)c1c(O)cc(C(C)(C)C)n(-c2ccc(F)cc2)c1=O,0.2,-4.7%,12.4,-20.4,-5.4,
O=C(c1ccccc1)c1sc(N2CCOCC2)nc1-c1ccccc1,0.7,8.0%,-8.9,.,6.1,
CCOc1ccc(-c2noc(CCC(=O)NC)n2)cc1OCC,-0.9,-9.9%,0.9,-3.0,-1.7,
COc1ccc(CCC(=O)NCCS(=O)(=O)N2CCN(c3ccc(OC)cc3)CC2)cc1,-2.2,.,.,.,0.4,

# (more compounds)
SMILES,RecA intein inh,Mtb H37Rv,Arbovirus inh,YopH inh,Mtb betalactam,others
COc1ccccc1CNC(=O)CCc1ccccc1,2.5,.,.,.,-7.9,
CCOC(=O)C1=C(C)N(C2CCCCC2)C(=O)C1,-1.0,1.3%,5.9,-41.4,-3.3,
Cc1ccc(C(=O)N2CC(C(=O)O)C2)cc1,-2.6,-3.4%,-0.8,.,-3.5,
Cc1cccc(C)c1NC(=O)CNC(=O)c1ccc(NS(=O)(=O)c2ccc3[nH]c(=O)[nH]c3c2)cc1,0.3,.,.,.,-17.6,
CC(=O)C1=C(O)C(=O)OC1c1ccc(C)cc1 (configuration not stated),-3.1,-2.6%,-0.2,.,-2.7,
CC(=O)Nc1ccc(S(=O)(=O)N2CCN(C(=O)c3ccco3)CC2)cc1,0.3,.,.,.,-9.3,
COc1ccc(Nc2cc(C(=O)N3CCc4ccccc4C3)c3ccccc3n2)c(OC)c1,16.3,72.5%,6.0,.,82.1,
CN(C)S(=O)(=O)c1cc(NC(=O)CN2CCNC(=O)C2)ccc1Cl,-2.3,-3.4%,3.0,-21.6,1.6,
COc1ccc(NC(=O)CCCNC(=O)Cn2cnc3sc(C)c(C)c3c2=O)c(OC)c1,-2.8,.,.,.,7.5,
COCCn1c(N2CCN(c3ccccc3)CC2)nc2c1c(=O)n(C)c(=O)n2C,-0.5,-5.3%,0.0,.,-9.3,
Cc1cnc(C(=O)NCCc2ccc(Cl)cc2)cn1,1.3,.,.,.,4.7,
O=C(CSC1=NCCS1)NCc1ccco1,-6.6,-0.6%,-0.6,-14.6,-9.0,Arbovirus inh repeat=-1.5
COc1cc(/C=C2/C(=N)N3C=CSC3=NC2=O)ccc1OCCCOc1cc(C)ccc1C,2.3,1.3%,-2.6,16.8,4.5,
CC(C)CC1Nc2ccc(C(=O)NCCCN3CCOCC3)cc2NC1=O (configuration not stated),4.6,.,.,.,4.2,
Clc1cccc(OCCCCN2CCCCC2)c1,1.2,.,.,.,-3.5,
COc1ccc(Br)cc1S(=O)(=O)n1ccnc1,0.2,-0.1%,-0.2,.,7.2,
O=C(Nc1cccc2ccccc12)c1ccccc1Cl,-0.9,.,.,.,81.9,
COc1cccc(NC(=O)[C@H](Cc2c[nH]c3ccccc23)NC(=O)[C@@H]2Cc3ccccc3CN2)c1,0.1,.,.,.,-8.0,
CCOC(=O)Cn1cnc2scc(-c3ccc(C)cc3)c2c1=O,2.4,.,.,.,0.9,
COc1cc(OC)cc(C(=O)NC(=S)Nc2ccc(NC(=O)c3ccco3)cc2)c1,-3.9,2.4%,-0.1,-17.2,6.9,

# Among those listed so far, two contain a COOH group:
SMILES,RecA intein inh,Mtb H37Rv,Arbovirus inh,YopH inh,Mtb betalactam,others
O=C(OC(C(=O)O)C(OC(=O)c1ccccc1)C(=O)NCc1ccccc1)c1ccccc1 (configuration not stated),-1.4,-11.5%,9.7,-25.9,-6.7,
Cc1ccc(C(=O)N2CC(C(=O)O)C2)cc1,-2.6,-3.4%,-0.8,.,-3.5,

# Some of the compounds tested; rates above refer to the full screens.
